GRP78 ERSR act: inducers of ER stress response in human glioma cells; U87-MG GRP78 promoter luciferase reporter, 16 h; Potency, µM, without a hit: at the top dose activation, usual class: activators; 420,000 tested, 0.02% active; also: potency is read from the fitted curve at half-maximal effect; series mostly up to about 76 µM; % of control where 0% means no effect; nearly all actives have a fitted effect of over 35% in size
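ERSR induction read as luciferase luminescence (Bright-Glo, 10 min at room temperature) in stably transfected human U87-MG glioma cells exposed to compounds for 16 h, using GRP78 as sensor.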
Vif-A3G inh: blocks the Vif interaction with human APOBEC3G; Q9HC16; HeLa A3G-eYFP + Vif (tagged APOBEC3G with the HIV-1 protein that degrades it), YFP fluorescence, overnight; Potency, µM (highest dose often 46.1 µM), for the others: at the top dose activity, negative = active, usual class: inhibitors; 410,000 tested, 0.076% active; AID 602310;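 also: potency is read from the fitted curve at half-maximal effect; % is scaled to controls: 0 for no effect and ±100 for the full control effect; nearly all actives have a fitted effect of over 60% in size; hits raise eYFP signal because A3G escapes Vif-driven loss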
Target sequence (Q9HC16 whole entry, looked up): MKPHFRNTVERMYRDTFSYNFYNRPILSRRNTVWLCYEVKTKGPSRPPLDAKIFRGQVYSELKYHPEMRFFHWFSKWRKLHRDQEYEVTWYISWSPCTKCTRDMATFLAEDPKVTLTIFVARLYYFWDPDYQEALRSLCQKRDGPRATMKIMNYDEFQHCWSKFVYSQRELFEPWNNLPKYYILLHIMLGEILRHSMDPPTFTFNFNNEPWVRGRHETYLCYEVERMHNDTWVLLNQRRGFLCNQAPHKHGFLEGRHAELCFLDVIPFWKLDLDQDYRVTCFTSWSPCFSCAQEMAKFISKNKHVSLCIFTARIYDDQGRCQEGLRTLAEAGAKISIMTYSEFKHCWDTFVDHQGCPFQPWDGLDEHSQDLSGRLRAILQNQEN
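HeLa cells stably expressing Vif and C-terminally eYFP-tagged A3G, seeded overnight at 37 deg C, then exposed to compound by pintool overnight at 37 deg C. Rise in yellow fluorescence (Ex 488/Em 500-530, Acumen) marks blocked Vif-driven A3G degradation.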
LDHA block: LDHA (human) enzyme inhibition; activity change, % (values are at about 110 or 230 µM); 480,000 tested, 0.15% active; P00338; purified LDHA, NADH/diaphorase-resazurin fluorescence; stronger effect = lower value; in the data active = activity change below about -30%; inconclusive = mostly about -25% to -30%;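 also: plate controls were DMSO wells for no effect and wells without enzyme for full effect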
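LDH5 2 nM; NADH 0.06 mM, pyruvate 0.2 mM; 200 mM Tris pH 7.4, EDTA, Tween-20; 5 min RT. Detection: diaphorase 0.133 mg/mL + resazurin 37 µM, fluorescence ex540/em590 at 0 and 20 min; normalized to enzyme-free and DMSO wells.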
Vif-APOBEC3F blk: Vif-A3F binding inhibition; HeLa A3F-eYFP + Vif (tagged APOBEC3F with the HIV-1 protein that degrades it), YFP fluorescence increase; Potency, µM (titrated, usually from 46.1 µM), inactives show at the highest dose activity, negative = active; 390,000 tested, 0.2% active; also: potency is read from the fitted curve at half-maximal effect; % of control where 0% means no effect; nearly all actives have a fitted effect of over 65% in size
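Fluorescence increase (Ex 488/Em 500-530) after overnight compound treatment at 37 deg C flags inhibition of Vif-driven A3F-eYFP loss in stable HeLa A3F-eYFP/Vif cells seeded overnight beforehand.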
RXFP1 agonist: agonists of human relaxin receptor RXFP1 | Q9HBX9 | HEK293T-RXFP1 cAMP TR-FRET, 30 min; response scale: percent of porcine relaxin response, buffer zero | Potency, µM (series often up to 57.5 µM), for the others: at the highest dose activation, usual class: activators | 370,000 tested, 0.3% active; also: potency is read from the fitted curve at half-maximal effect; % is scaled to controls: 0 for no effect and ±100 for the full control effect; nearly all actives have a fitted effect of over 60% in size; many of its hits are not listed in these tables
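HEK293 cells stably expressing RXFP1, treated 30 min at 37C with compounds plus PDE4 inhibitor Ro 20174; cAMP measured by HTRF TR-FRET. Normalized to buffer and 29 nM porcine relaxin; EC50 by Hill fit.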
* marks the source's active call; other numbers are inactive results; u = inconclusive; x = no result given; & = joins results of further samples. Unless noted, calls follow the shape of the dose curve; as a rule, active = well fitted curve in the direction sought with a large enough effect; inconclusive = small, poorly fitted or top-dose-only effect, or another doubt; inactive = no such curve, though single readings can be large; an effect the other way counts as inactive or inconclusive. Not all compounds are listed. The share of hits here may be higher or lower than overall.

Under each structure: Vif-APOBEC3F blk | RXFP1 agonist | Vif-A3G inh | LDHA block | GRP78 ERSR act
1: CCCN(CCC)C1CCc2ccc(O)cc2C1 (stereo not drawn)
→ 4% | 1.1% | 2% | -4 | -2%&-2%&-3%
2: Clc1ccc(CO[C@@H](Cn2ccnc2)c2ccc(Cl)cc2Cl)cc1
→ x | x | x | x | -3%
3: O=S(=O)(O)c1cc(O)ccc1O
→ 7% | 0.7% | -2% | 4 | -3%&-3%
4: CC(COc1ccccc1)N(CCCl)Cc1ccccc1 (stereo not drawn)
→ -1% | -0.5% | -1% | -5 | u
5: C#C[C@@]1(O)CC[C@@H]2[C@@H]3CCC4=CC(=O)CC[C@@]4(C)[C@H]3CC[C@]21C
→ x | x | x | x | -4%
6: C=CCN1CCC23c4c5ccc(O)c4O[C@H]2C(=O)CC[C@@]3(O)C1C5 (stereo partly drawn)
→ x | x | x | x | -7%&-6%
7: O=c1[nH]c2ccccc2n1C1CCN(CCCC(c2ccc(F)cc2)c2ccc(F)cc2)CC1
→ 2% | 5.6% | -7% | -8 | -14%&0%&-6%&-3%&-13%&-12%&-5%
8: C=CCN1CC[C@]23c4c5ccc(O)c4O[C@H]2C(=O)CC[C@@]3(O)[C@H]1C5
→ 10%&-4% | -1.0%&3.6% | -3%&-1% | -5&-2 | 2%&-3%&-3%
9: C#C[C@]1(O)CC[C@H]2[C@@H]3CCC4=CC(=O)CCC4(C)[C@H]3CCC21C (stereo partly drawn)
→ x | x | x | x | -1%
10: C=CCN1CC[C@]23c4c5ccc(O)c4OC2C(=O)CC[C@@]3(O)C1C5 (stereo partly drawn)
→ -3% | 4.7% | 2% | -2 | -3%
11: CN1C(=O)CN=C(c2ccccc2)c2cc(Cl)ccc21
→ x | 0.6% | x | x | -3%

Quoted at random: 5 records from the list.
Under each structure: Vif-APOBEC3F blk | RXFP1 agonist | Vif-A3G inh | LDHA block | GRP78 ERSR act
11: CN1C(=O)CN=C(c2ccccc2)c2cc(Cl)ccc21
→ x | 0.6% | x | x | -3%
10: C=CCN1CC[C@]23c4c5ccc(O)c4OC2C(=O)CC[C@@]3(O)C1C5 (stereo partly drawn)
→ -3% | 4.7% | 2% | -2 | -3%
2: Clc1ccc(CO[C@@H](Cn2ccnc2)c2ccc(Cl)cc2Cl)cc1
→ x | x | x | x | -3%
9: C#C[C@]1(O)CC[C@H]2[C@@H]3CCC4=CC(=O)CCC4(C)[C@H]3CCC21C (stereo partly drawn)
→ x | x | x | x | -1%
6: C=CCN1CCC23c4c5ccc(O)c4O[C@H]2C(=O)CC[C@@]3(O)C1C5 (stereo partly drawn)
→ x | x | x | x | -7%&-6%

Profiles from above. Order of values: Vif-APOBEC3F blk	RXFP1 agonist	Vif-A3G inh	LDHA block	GRP78 ERSR act
`C#C[C@]1(O)CC[C@H]2[C@@H]3CCC4=CC(=O)CCC4(C)[C@H]3CCC21C` (stereo partly drawn) in the list: x	x	x	x	-1%
`C=CCN1CC[C@]23c4c5ccc(O)c4OC2C(=O)CC[C@@]3(O)C1C5` (stereo partly drawn) in the list: -3%	4.7%	2%	-2	-3%
`C=CCN1CC[C@]23c4c5ccc(O)c4O[C@H]2C(=O)CC[C@@]3(O)[C@H]1C5` in the list: 10%&-4%	-1.0%&3.6%	-3%&-1%	-5&-2	2%&-3%&-3%
`C=CCN1CCC23c4c5ccc(O)c4O[C@H]2C(=O)CC[C@@]3(O)C1C5` (stereo partly drawn) in the list: x	x	x	x	-7%&-6%
